Mtb H37Rv – Mycobacterium tuberculosis H37Rv growth inhibition, putative kinase inhibitor library, confirmatory dose response (AID 2842) | M. tuberculosis H37Rv growth inhibition; higher % means a stronger effect; some inactives read as strong as hits | actives 5.2% (n = 24,000) | inhibition, % at 10 µg/mL; hits with a dose series show IC90 in µg/mL;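 active means confirmed in a dose series; about a fifth of its hits are not listed in these tables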;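 further: bacteria incubated one week before Alamar blue readout; 0% = bacteria only wells and 100% = bacteria with high antibiotic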
* = called active by the depositor. Only part of the results is shown. The share of hits here may be higher or lower than overall.

Compound | Mtb H37Rv
O=C(NNC(=O)c1cc2cc([N+](=O)[O-])ccc2s1)c1ccncc1 | -17.2%
NC(=O)c1nc(-c2ccc(Br)cc2)nc2c1[nH]c(=O)n2-c1ccc(F)cc1 | -3.2%
Cn1c(Cn2c(=O)sc3ccccc32)nnc1SCC(=O)Nc1ccc(Br)cc1 | -4.5%
O=C(CSc1ncnc2ccccc12)Nc1ccc(F)cc1F | 1.4%
Cc1nc2ccccc2n1CC(=O)N1CC(=O)Nc2ccccc21 | -0.9%
COCC(=O)Nc1c(C(=O)Nc2ccc(C)c(C)c2)oc2ccccc12 | -6.4%
CCOC(=O)c1oc2ccccc2c1NC(=O)Cc1ccc(F)cc1 | 15.9%
CN1CCN(c2nc3c(c(=O)[nH]c(=O)n3C)n2CCSc2nnnn2-c2ccccc2)CC1 | 0.5%
Cc1ccc(C)c(C(=O)Nc2nnc(-c3cc(C)ccc3C)o2)c1 | 2.56µg/mL*
Cn1cnnc1SCc1cc(=O)c(OCc2cccc(F)c2)co1 | -7.7%
CS(=O)(=O)c1ccc2nc(Nc3nc4cc5c(cc4s3)OCO5)sc2c1 | 60.7%
Cc1cc2c(c(=O)n1CCO)C(c1cccc(F)c1)C(C#N)=C(N)O2 (stereo unspecified) | -11.0%
O=C(Nc1ccncc1)c1cccn(Cc2ccccc2F)c1=O | 3.8%
Nc1ncnc(Nc2cc([N+](=O)[O-])ccc2F)c1[N+](=O)[O-] | -0.9%
COc1cccc(-n2c(Cc3cc(=O)[nH]c(=O)[nH]3)n[nH]c2=S)c1 | -2.1%
COc1cccc(NC(=O)C(=O)NCC2COC3(CCCCC3)O2)c1 (stereo unspecified) | 10.1%
Cc1[nH]nc(-c2ccc(O)cc2O)c1Oc1ccc(Cl)cc1 | 8.5%
Cc1ccc2cc(CCNC(=O)/C=C\c3ccccc3)c(=O)[nH]c2c1C | -0.6%
Cc1ccc2nc(NC(=O)CSc3nnc4[nH]c(=O)c(C)c(C)n34)sc2c1 | -1.6%
COc1ccc(C(=O)Nc2c(C(N)=O)oc3ccccc23)c(OC)c1 | -5.4%
CCNc1nc2c(c(=O)[nH]c(=O)n2C)n1CC(O)COc1ccccc1 (stereo unspecified) | -7.5%
CSc1nc2ccc3nc(NC(=O)c4ccc(Oc5ccccc5)cc4)sc3c2s1 | -1.2%
O=C(CSc1ncnc2c1nnn2-c1ccc(F)cc1)Nc1ccc2c(c1)OCCO2 | -1.6%
CCOCCn1c(N2CCN(C)CC2)nc2c1c(=O)[nH]c(=O)n2C | -1.2%
COc1ccc(-c2coc3cc(OC(=O)C(C)N)ccc3c2=O)cc1 (stereo unspecified) | 3.2%
O=C(Nc1nc(-c2nc3ccccc3s2)cs1)c1ccc(N2C(=O)CCC2=O)cc1 | -5.9%
COc1ccccc1NC(=O)CC1Nc2ccccc2NC1=O (stereo unspecified) | 6.9%
O=C(NNc1ncnc2c1cnn2-c1ccc(F)cc1)c1ccc(Cl)c(Cl)c1 | 52.0%
Cc1cc(C)c2c(N)c(C(=O)Nc3ccc(OC(C)C)cc3)sc2n1 | -6.8%
COc1cccc2sc(NC(=O)c3ccc(Cc4ccccc4)cc3)nc12 | 20.6%

The last 4 records of the section above lead into the next:
Compound | Mtb H37Rv
COc1ccccc1NC(=O)CC1Nc2ccccc2NC1=O (stereo unspecified) | 6.9%
O=C(NNc1ncnc2c1cnn2-c1ccc(F)cc1)c1ccc(Cl)c(Cl)c1 | 52.0%
Cc1cc(C)c2c(N)c(C(=O)Nc3ccc(OC(C)C)cc3)sc2n1 | -6.8%
COc1cccc2sc(NC(=O)c3ccc(Cc4ccccc4)cc3)nc12 | 20.6%
Cc1ccccc1NC(=O)CN1N=NC2C(=O)N(c3ccc(F)c(F)c3)C(=O)C21 (stereo unspecified) | -3.7%
COc1ccc(C(=O)NC2CC(=O)N(c3ccc4c(c3)OCCO4)C2)cc1OC (stereo unspecified) | -14.4%
COc1ccc(C(=O)Nc2sc3c(c2C#N)CCN(C(C)=O)C3)cc1 | 12.2%
CSc1nc2ccc3nc(NC(=O)c4ccccc4Oc4ccccc4)sc3c2s1 | -5.8%
CCOC(=O)c1nn(-c2ccc(C)cc2)c(=O)c2c(NC(=O)/C=C/c3ccc4c(c3)OCO4)scc12 | -1.6%
COc1ccc(NC(=O)CSc2nncc(=O)n2N)cc1OC | 13.5%
CC(=O)c1ccc(NC(=O)CSc2nc(-c3cccs3)nc3c2c(=O)n(C)c(=O)n3C)cc1 | -10.3%
O=C(CN1C(=O)CCC1=O)Nc1nc(-c2ccc(Cl)c(Cl)c2)cs1 | 0.4%
Cc1sc2nc(SCC(=O)NC3CCCCC3)[nH]c(=O)c2c1C | -12.0%
O=C(NCc1ccc(F)cc1)C(=O)c1c[nH]c2ccccc12 | 10.7%
O=C(c1ccc(COc2ccc(F)cc2)o1)n1cccn1 | -6.7%
CC(C)(C)n1nc2c(c1NC(=O)Cc1cccc3ccccc13)CS(=O)C2 (stereo unspecified) | 6.2%
O=C(Nc1nnc(-c2ccc(Cl)s2)o1)c1cccc([N+](=O)[O-])c1 | 6.09µg/mL*
O=C(CC1CCS(=O)(=O)C1)Nc1ccccc1C(F)(F)F (stereo unspecified) | -5.9%
CN1CC2=C(C1=O)C(c1ccc(OCc3ccccc3)cc1)NC(=O)N2 (stereo unspecified) | -13.4%
CC(=O)Nc1ccc(S(=O)(=O)N2CCN=C2SCc2ccc([N+](=O)[O-])cc2)cc1 | -10.4%
CC(=O)Nc1sc(=S)c2c(c1C#N)CCCC2 | -16.0%
Cc1cc(SCC(=O)N2CCCC2)nc(=O)[nH]1 | -5.3%
O=C(Nc1c(C(=O)Nc2ccc([N+](=O)[O-])cc2)oc2ccccc12)c1ccc(Br)o1 | 4.7%
COc1ccc(C2NC(=O)NC3=C2C(=O)N(Cc2cccs2)C3)cc1 (stereo unspecified) | -3.3%
Cc1ccc(C(=O)Nc2nnc(C34CC5CC(CC(C5)C3)C4)s2)cc1 | 7.7%
COc1ccc(C(=O)Nc2c(N)nc(SCC(=O)N3CCCC3)[nH]c2=O)cc1OC | -4.8%
O=C(Nc1ccc(Br)cc1)c1ccc(S(=O)(=O)N2CCCC2)cc1 | 17.7%
COc1ccc(-c2ccc(NS(=O)(=O)c3ccc(Cl)s3)cc2)nn1 | -12.0%
O=C(Nc1nc(-c2ccccc2)cs1)c1ccc(S(=O)(=O)N2CCc3ccccc3C2)cc1 | -2.1%
Cc1ccc2cc(CCNC(=O)c3cc(Br)ccc3Cl)c(=O)[nH]c2c1 | -4.8%
O=C(CSc1ncnc2c1cnn2-c1ccc(F)cc1)Nc1cccc([N+](=O)[O-])c1 | 1.1%
Cc1ccccc1-c1nnc(NC(=O)CC23CC4CC(CC(C4)C2)C3)s1 | 1.1%
COc1ccc(Nc2oc(COc3ccc(C)cc3)nc2C#N)cc1 | 19.5%
CCn1c(N)nc2c1c(=O)[nH]c(=O)n2C | 12.5%
Cc1ccccc1NC(=O)CSc1nnc2[nH]c(=O)c(C)c(C)n12 | -16.8%
CC1CCc2c(sc3ncnc(NCCOCCO)c23)C1 (stereo unspecified) | 5.6%
CCOCC(=O)Nc1scc2c(C(=O)OCC)nn(-c3ccc(OC)cc3)c(=O)c12 | 0.8%
COC(=O)c1ccc(C(=O)NNc2nc3ccc(Cl)cc3s2)cc1 | 28.9µg/mL*
CCCCOc1ccc(C(=O)NCCc2cc3ccc(C)cc3[nH]c2=O)cc1 | 3.8%
COc1ccc(-n2c(=O)[nH]c3c(C(N)=O)nc(-c4ccc(F)cc4)nc32)c(OC)c1 | -6.3%
Cc1ccccc1-c1nnc(NC(=O)c2ccc(C(C)(C)C)cc2)s1 | 6.7%
COc1ccc2nc(-c3cccc(NC(=O)c4ccccc4F)c3)cn2n1 | -6.1%
CCOc1ccccc1-n1nnc(C(=O)Nc2ccc(C(=O)O)cc2)c1C | 37.7%
COCCNC(=O)CSc1nccn1Cc1ccc2c(c1)OCO2 | -10.4%
COc1ccc(NC(=O)c2oc3ccccc3c2NC(=O)c2ccccc2OC)cc1OC | 4.5%
Cc1ccc(N2CC(NC(=O)NCc3cccs3)CC2=O)cc1 (stereo unspecified) | 1.2%
O=C(Nc1ccccc1-c1nc2ccccc2[nH]1)c1cccc(C(F)(F)F)c1 | 8.8%
O=C(Nc1nnc(-c2ccccc2Cl)s1)c1cccc(C(F)(F)F)c1 | 19.0%
CN1CCN(c2ncnc3c2cnn3-c2ccccc2)CC1 | 4.3%
COc1ccccc1-n1c(SCC(=O)Nc2cccc(Cl)c2)nc2c(c1=O)SCC2 | 0.9%
CS(=O)(=O)c1cccc(-c2nnc(NC(=O)c3c(F)cccc3F)o2)c1 | -13.0%
CCOc1cc(C(=O)Nc2nnc(C)s2)cc(OCC)c1OCC | -2.8%
COc1cccc(C(=O)Nc2c3c(nn2-c2ccccc2C)CSC3)c1OC | -1.1%
COCCNC(=O)Cn1cnc2c(nnn2-c2ccc(Cl)cc2)c1=O | -4.2%
CC(=O)Nc1ccc2c(c1)CC(=O)N2C | 3.7%
Cc1ccc(N(C2CCS(=O)(=O)C2)S(=O)(=O)c2ccc(C)cc2)cc1 (stereo unspecified) | -5.3%
Cc1ccc(-c2csc(NC(=O)c3ccc(S(=O)(=O)N4CCCC4)cc3)n2)c(C)c1 | 73.8%
CC(=O)Nc1ccc2nc(Nc3nc4ccc(Cl)cc4s3)sc2c1 | 8.93µg/mL*
COc1ccc(C(=O)Nc2c(N)nc(SCC(=O)NCc3ccc4c(c3)OCO4)[nH]c2=O)cc1OC | -4.0%
Cc1c(C)n2c(SCC(=O)NCc3ccco3)nnc2[nH]c1=O | -11.7%
CCOC(=O)c1nn(-c2ccc(Cl)cc2)c(=O)c2c(NC(=O)c3ccccc3Cl)scc12 | -4.6%
CCOC(=O)c1nn(-c2ccc(C)cc2)c(=O)c2c(NC(=O)C(CC)c3ccccc3)scc12 (stereo unspecified) | 3.0%
O=C(CSc1ccc2nnc(-c3ccncc3)n2n1)Nc1ccc(F)cc1F | -5.5%
CCCc1nc(SCC(=O)Nc2ccc(F)cc2F)c2c(=O)n(C)c(=O)n(C)c2n1 | 0.3%

The listing continues:
SMILES | Mtb H37Rv
Cc1cc(C)c(NC(=O)CSc2nnc3[nH]c(=O)ccn23)c(C)c1 | 4.5%
O=C(Nc1nc(-c2ccc3c(c2)OCCO3)cs1)c1cccc(F)c1 | -0.8%
Cc1nc2sc(C(c3ccco3)N3CCC(Cc4ccccc4)CC3)c(O)n2n1 (stereo unspecified) | 2.2%
NC(=O)c1nc(-c2cccnc2)nc2c1[nH]c(=O)n2-c1ccccc1F | -0.2%
O=C(Nc1nc(-c2cc(Cl)sc2Cl)cs1)c1cc(=O)c2ccccc2o1 | -9.9%
c1ccc(-c2nnn3c2nc(N2CCCCCC2)c2ccccc23)cc1 | -17.1%
CC(C)=CC(=O)Nc1sc2c(c1C(N)=O)CCCC2 | -2.2%
O=C(Nc1cnn(Cc2ccc(F)cc2)c1)c1cc(-c2ccc3c(c2)OCO3)on1 | 4.1%
COC(=O)C1=C(C)N(C)C(=O)NC1c1ccc(OCc2ccccc2)cc1 (stereo unspecified) | 52.8%
COc1ccc2c(c1)c1nnc(-c3ccc(F)cc3)c-1cn2Cc1ccccc1 | 20.8%
COC(=O)c1c(NC(=O)C(C)C)sc2c1CC(C)(C)NC2(C)C | 3.3%
COc1ccc(-n2ccnc(SCc3cccc(C)c3)c2=O)cc1OC | -0.7%
COc1ccc(C(=O)Nc2sc3c(c2C#N)CC(C)CC3)cc1 (stereo unspecified) | -3.1%
CCN(Cc1ccccc1)C(=O)CCCN1C(=O)/C(=C\c2ccco2)SC1=S | 70.1%
COc1ccc(C2C3=C(CC(C)(C)CC3=O)Nc3nc(SCc4ccccc4)[nH]c(=O)c32)cc1 (stereo unspecified) | 3.5%
O=C(c1ccco1)N(CCCn1ccnc1)c1nc2c(F)cc(F)cc2s1 | 0.75µg/mL*
COc1ccc(N2CCN(c3nc4c(c(=O)n(C)c(=O)n4C)n3CCSc3nnc(C)s3)CC2)cc1 | -0.5%
COc1ccc(C(=O)Nc2c(C(=O)Nc3ccccc3)oc3ccccc23)cc1 | 10.6%
CC(=O)c1ccc(OCC(O)CN2CCc3ccccc3C2)cc1 (stereo unspecified) | 0.3%
Cc1[nH]c2ccc(N3CCOCC3)cc2c(=O)c1CN1CC2(C)CC1CC(C)(C)C2 (stereo unspecified) | 19.0%
Cc1ccc(S(=O)(=O)c2nc(/C(C#N)=C\c3ccccc3)sc2Cl)cc1 | -10.8%
Cc1ccc(NC(=O)Cn2cnc3c(nnn3-c3ccc(Cl)cc3)c2=O)cc1 | 3.6%
NC(=O)CSc1ccc(-c2ccc(F)cc2)nn1 | -6.0%
COc1ccc(OC)c(CCn2c(=S)[nH]c3c(oc4ccccc43)c2=O)c1 | 2.2%
Cc1csc2ncc(C(=O)NCc3ccccc3Cl)c(=O)n12 | 7.2%
Nc1ncnc(N2CCN(c3ccccc3Cl)CC2)c1[N+](=O)[O-] | -1.5%
Cc1cc(C)cc(NC(=O)CSc2cn(C)c3ccccc23)c1 | -2.8%
Nc1nc(SCC(=O)Nc2cccc(C(F)(F)F)c2)[nH]c(=O)c1NC(=O)c1ccccc1F | 3.3%
O=C(CSc1nnc2ccc(-c3ccncc3)nn12)Nc1ccc(Br)cc1 | -1.9%
Cc1ccc(C)c(-c2csc(NC(=O)CN3C(=O)c4ccccc4C3=O)n2)c1 | -6.3%

Retrieved by structure from the entries so far, 7 records:
SMILES | Mtb H37Rv
NC(=O)c1nc(-c2cccnc2)nc2c1[nH]c(=O)n2-c1ccccc1F | -0.2%
COc1ccc(C(=O)Nc2c(C(=O)Nc3ccccc3)oc3ccccc23)cc1 | 10.6%
COC(=O)C1=C(C)N(C)C(=O)NC1c1ccc(OCc2ccccc2)cc1 (stereo unspecified) | 52.8%
Cc1ccc(S(=O)(=O)c2nc(/C(C#N)=C\c3ccccc3)sc2Cl)cc1 | -10.8%
Nc1nc(SCC(=O)Nc2cccc(C(F)(F)F)c2)[nH]c(=O)c1NC(=O)c1ccccc1F | 3.3%
COc1ccc(C(=O)Nc2sc3c(c2C#N)CC(C)CC3)cc1 (stereo unspecified) | -3.1%
COc1ccc2c(c1)c1nnc(-c3ccc(F)cc3)c-1cn2Cc1ccccc1 | 20.8%

Individual results from the list:
Reading for `Cc1[nH]c2ccc(N3CCOCC3)cc2c(=O)c1CN1CC2(C)CC1CC(C)(C)C2` (stereo unspecified) in Mtb H37Rv: 19.0%
Reading for `Cc1cc(C)cc(NC(=O)CSc2cn(C)c3ccccc23)c1` in Mtb H37Rv: -2.8%

From PubChem
